AID923: qHTS Assay for Allosteric/Competitive Inhibitors of Caspase-1: Spectroscopic Profiling in AFC Spectral Region; compound fluorescence, AFC spectral region (405/520 nm); almost no hit is shown here; Potency, µM (doses to about 57.5 µM), without a hit: at the top dose fluorescence increase, usual class: activators; actives 1.1% (n = 75,000); AID 923, 2007; active means well fitted activation curve with a large enough effect; inconclusive means small, poorly fitted or top-dose-only effect;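 further: potency means the concentration at half of the fitted maximal effect; 0% is about no effect; scaled to a free AFC standard on each plate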
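Titrations up to 57 uM read every 20 sec for 3 min (405/520 nm) with 50 nM caspase 1 and 5 uM Ac-WEHD-AFC, pH 7.5 HEPES buffer. Fluorescence-vs-time intercept gave baseline, scaled against on-plate AFC standard.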
TSHR ag: qHTS Assay for Agonists of the Thyroid Stimulating Hormone Receptor; Potency, µM (doses to about 57.1 µM), without a hit: at the highest dose activation, usual class: activators; AID 926, 2007; Thyrotropin receptor (Homo sapiens), P16473; HEK293-CNG-TSHR cells (CNG channel as cAMP sensor), membrane potential dye, cAMP; actives 0.48% (n = 73,000); active = well fitted activation curve of enough size with the parental cells flat; inconclusive = any curve in the parental cells; inactive = parental cells flat and receptor cells flat or falling; further: potency means the concentration at half of the fitted maximal effect; % of control where 0% means no effect; weak receptor curves with flat parental cells got no call and are not listed
Target sequence (P16473 whole entry, looked up): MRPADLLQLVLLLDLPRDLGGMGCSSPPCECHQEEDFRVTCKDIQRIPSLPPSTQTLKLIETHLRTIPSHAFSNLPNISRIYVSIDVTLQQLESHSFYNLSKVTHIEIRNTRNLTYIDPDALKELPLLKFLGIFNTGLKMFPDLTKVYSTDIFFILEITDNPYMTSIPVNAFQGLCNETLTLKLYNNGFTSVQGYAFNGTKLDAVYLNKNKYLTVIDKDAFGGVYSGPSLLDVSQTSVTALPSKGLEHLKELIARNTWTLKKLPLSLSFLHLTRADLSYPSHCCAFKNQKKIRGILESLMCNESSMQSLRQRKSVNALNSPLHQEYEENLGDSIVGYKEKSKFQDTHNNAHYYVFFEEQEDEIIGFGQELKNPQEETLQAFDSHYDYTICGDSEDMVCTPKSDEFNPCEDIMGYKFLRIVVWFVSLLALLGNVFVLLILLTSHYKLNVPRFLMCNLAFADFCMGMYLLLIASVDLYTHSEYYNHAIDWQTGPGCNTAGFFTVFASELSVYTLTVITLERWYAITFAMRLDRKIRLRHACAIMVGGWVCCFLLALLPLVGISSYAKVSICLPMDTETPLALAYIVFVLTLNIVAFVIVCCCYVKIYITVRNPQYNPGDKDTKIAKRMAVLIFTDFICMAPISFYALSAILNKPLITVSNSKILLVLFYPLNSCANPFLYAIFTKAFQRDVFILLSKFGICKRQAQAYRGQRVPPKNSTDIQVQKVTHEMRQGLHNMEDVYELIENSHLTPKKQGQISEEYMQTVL
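cAMP rise detected as CNG-channel membrane depolarization by fluorescent dye (emission 590 nm), 30 min after compound, following 60 min dye loading containing 100 uM RO 20-1724 at room temperature. Cells: TSHR/CNG HEK 293, with parental CNG HEK 293 as control.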
A488 fluor: qHTS Assay for Spectroscopic Profiling in A488 Spectral Region; compound autofluorescence, A488 spectral region, dye equivalency; stronger effect = higher value; max dye equivalency, M; actives 0.1% (n = 59,000); AID 591, 2007; active = above 10 nM dye equivalent; inconclusive = 1 to 10 nM; inactive = 1 nM or less; about half of its hits are not listed in these tables;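 further: highest value over a series up to 38 µM; compound alone in buffer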
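Intrinsic compound fluorescence is measured in 100 mM Tris buffer at pH 8.0 following 15 min incubation at room temperature. Intensities at 480 nm excitation/540 nm emission are calibrated to an on-plate A488 concentration series, giving dye-equivalent concentrations.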
A647 autofl: qHTS Assay for Spectroscopic Profiling in A647 Spectral Region; 59,000 tested, under 10 active; AID 592, 2007; max dye-equivalent concentration, M; Compound fluorescence, A647 channel (570/671 nm), Tris buffer; active means above 1 µM dye equivalent; inconclusive means 0.1 to 1 µM; inactive means 0.1 µM or less;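 further: values scaled relative to a standard on each plate; highest value over a series up to 38 µM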
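Each compound's intrinsic fluorescence at 570 nm excitation and 671 nm emission is measured across its concentration series in 100 mM Tris, pH 8.0, after 15 min at room temperature, and reported relative to an A647 curve.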
Resorufin fluor: qHTS Assay for Spectroscopic Profiling in Resorufin Spectral Region. actives 0.04% (n = 59,000). max dye-equivalent concentration, M. Compound fluorescence, resorufin region 547/598 nm, buffer; stronger effect = higher value; active = above 10 nM dye equivalent; inconclusive = 1 to 10 nM; inactive = 1 nM or less; a few of its hits are not listed in these tables; further: highest value over a series up to 38 µM
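Compounds in 100 mM Tris buffer, pH 8.0, incubated 15 min at room temperature, then read with 547 nm excitation and 598 nm emission filters. Fluorescence was converted to dye-equivalent concentration using an on-plate six-point resorufin standard curve.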
An asterisk follows results filed as active; i = inactive; ? = inconclusive; . = no result given; & = joins results of further samples; [ ] = dose if it differs, or a comment. Only part of the results is shown (hit frequency here may not be typical).

Compound,AID923,TSHR ag,A488 fluor,A647 autofl,Resorufin fluor
Cc1ccc(NC(=O)CSc2nnc(-c3ccc(S(=O)(=O)N4CCOCC4)cc3)n2C)cc1,0.4%,-4%,i,1.2e-09,i
O=c1[nH]c(CN2CCN(C/C=C/c3ccccc3)CC2)nc2cc(Cl)ccc12,-2.4%,-10%,i,8.6e-09,i
O=S(=O)(c1ccccc1)n1nc(-c2ccccc2)nc1NCc1ccco1,-0.4%,?,i,5.7e-08,i
COc1ccc2nc(NC(=O)CSC3=NCCS3)sc2c1,-0.2%,0%,i,1e-09,i
C[C@@H]1NCC[C@H](CC(=O)O)[C@H]1CC(=O)O,-3.6%[11.5 µM],-8%[11.4 µM],i,1.4e-09,i
NC(=NCCC[C@H](N)C(=O)O)NO,-1.4%,5%,i,8.9e-09,i
CCc1ccccc1N1CC23C=CC(O2)C(C(=O)OC)C3C1=O (stereo not given),-0.2%,-7%,.,.,.
CCC(=O)Nc1cccc(NC(=O)c2ccc3c(c2)OCCO3)c1,1.1%,?,i,1.4e-08,i
O=C(NCc1cccs1)c1cc2c(s1)CS(=O)(=O)C2,-1.8%,0%[11.4 µM],i,1e-09,i
COc1ccc(C(=O)Nc2ccc(Cl)cc2C(=O)NCCO)cc1,-1.5%,-3%,i,2.1e-09,i
CC(=O)Nc1cccc(-c2nnc(SCC(=O)N3CCCCC3)n2C)c1,1.4%,6%,i,5.4e-09,i
COc1ccc(-c2noc(CCN3C(=O)c4ccccc4C3=O)n2)cc1OC,-0.7%,26%,i,1e-09,i
Cc1ccc(S(=O)(=O)N2CCC(C(=O)N[C@@H](C)C(=O)NCC3CCCO3)CC2)cc1 (stereo not given in full),-3.1%,3%,i,6.7e-09,i
O[C@@H](c1cc(-c2ccccc2)nc2c1ccc1ccccc12)[C@@H]1CCCCN1,-1.3%[11.5 µM],10%[11.4 µM],i,4.5e-08,i
O=C1NC(=O)C(CC(=O)N(c2ccccc2)C2(C(=O)NC3CCCC3)CCCCC2)N1 (stereo not given),-1.5%,-8%,i,1e-09,i
CC1(C)CC(=O)C2=C(C1)OC(N)=C(C#N)C2C#Cc1ccccc1 (stereo not given),5.3%,18%,i,3.7e-09,i

In a second layout: 4 of the compounds above
Under each structure: AID923	TSHR ag	A488 fluor	A647 autofl	Resorufin fluor
- COc1ccc(C(=O)Nc2ccc(Cl)cc2C(=O)NCCO)cc1
 : -1.5%	-3%	i	2.1e-09	i
- CC(=O)Nc1cccc(-c2nnc(SCC(=O)N3CCCCC3)n2C)c1
 : 1.4%	6%	i	5.4e-09	i
- COc1ccc(-c2noc(CCN3C(=O)c4ccccc4C3=O)n2)cc1OC
 : -0.7%	26%	i	1e-09	i
- Cc1ccc(S(=O)(=O)N2CCC(C(=O)N[C@@H](C)C(=O)NCC3CCCO3)CC2)cc1 (stereo not given in full)
 : -3.1%	3%	i	6.7e-09	i

New compounds follow:
Compound,AID923,TSHR ag,A488 fluor,A647 autofl,Resorufin fluor
c1ccc(CNc2c3c(nc4ncnn24)CCCC3)nc1,-0.9%,0%,i,2.7e-08,i
COc1ccc(N(CC(=O)Nc2cc(C)on2)S(=O)(=O)c2cc(C)ccc2C)cc1,-0.3%,25µM*,i,3.4e-09,i
Cc1cc(C(=O)N[C@H](c2ccccc2)[C@@]2(C)C[C@@H]2[C@@H](C)C(=O)Nc2ccc3ccccc3c2)n(C)n1,-2.8%,23%,.,.,.
CC(C)(C)C(=O)Oc1cc(N)n(S(=O)(=O)c2ccccc2)n1,-0.4%,1%[11.4 µM],i,3.6e-09,i
COc1ccc(CCNC(=O)c2nnn(CC(=O)Nc3ccccc3C)c2N)cc1OC,1.7%,-1%,i,1e-09,i
CCOC(=O)N1CCC(NC(=O)CSc2cc(=O)n(C)c3ccccc23)CC1,-0.8%,1%[11.4 µM],i,8.9e-09,i
O=C(Nc1ccc2c(c1)Cc1ccccc1-2)[C@@H]1[C@H](C(=O)O)[C@]2(Cl)C(Cl)=C(Cl)[C@@]1(Cl)C2(Cl)Cl,-4.9%[11.5 µM],1%[11.4 µM],i,3.8e-08,i
CC1(c2ccc(Cl)cc2)NC(=O)N(CC(=O)NC(=O)NCc2ccco2)C1=O (stereo not given),-2.7%,-19%,i,2.4e-08,i
O=S(=O)(NCCSc1nc2ccccc2o1)c1ccccc1,-4.5%,22%,.,.,.
Cc1ccc(N(C(C)C(=O)Nc2ccccc2C(=O)N2CCOCC2)S(C)(=O)=O)cc1C (stereo not given),-1.1%,1%,i,4.2e-09,i
COc1ccc2cc(CN(Cc3cccnc3)Cc3nnnn3Cc3ccccc3)c(=O)[nH]c2c1,-0.6%,19%,i,1.1e-08,i
Cc1cccc(NC(=O)N2CCC(c3nc4ccccc4o3)CC2)c1,-1.1%,-4%,i,1.4e-08,i
CC(=O)Nc1cccc(Oc2ccc3c(c2)C(=O)N(CCC(=O)O)C3=O)c1,2.5%,5%,i,3.4e-08,i
CCC(=O)N=C1SC2CS(=O)(=O)CC2N1c1cccc(OC)c1 (stereo not given),1.8%,2%[11.4 µM],i,6.5e-09,i
CCOc1ccc(N(CC(N)=O)S(=O)(=O)c2ccc(F)cc2)cc1,-0.9%,0%,i,3.8e-08,i
Clc1ccc2nc(NC3=NCN(CCN4CCOCC4)CN3)nc(-c3ccccc3)c2c1,0.9%,?,i,3e-08,i
Cc1cccn2c(=O)c(/C=N/O)c(N3CCCCC3)nc12,0.8%,?,i,1e-09,i
COc1ccc(NC(=O)CCN2CCC(C)CC2)cc1,-0.3%,1%,.,.,.
N#Cc1nc(-c2cccs2)oc1N1CCN(c2ccccc2)CC1,2.9%,?,i,9.5e-09,i
OCC1OC(C#Cc2ccccc2)C=CC1O (stereo not given),4.8%&1.4%&-1.6%[11.5 µM],-2%&1%&1%[11.4 µM],.,.,.
COc1cc(OC)cc(C(=O)NCCN2CCOCC2)c1,-0.1%,2%,i,2.7e-08,i
O=C(COc1ccc(Cl)cc1)Nc1ccc2oc(-c3ccncc3)nc2c1,-1.1%,5%,i,1.8e-08,i
O=S(=O)(NC1=NCCCCCC1)c1cccs1,-1.4%,0%,i,1e-09,i
COC(=O)Cc1ccc(NC(=O)c2ccc(Br)o2)cc1,0.2%,-3%,i,1.3e-09,i
O=C(CN1C(=O)CSC1=O)Nc1ccc2c(c1)OCCO2,2.1%,.,i,1e-09,i
COc1ccc(NC(=O)N2CC(C)OC(C)C2)cc1OC (stereo not given),-0.3%,8%,i,1.3e-09,i
C/C(CCN1CCCCc2nc(C)c(C)cc21)=N\O[C@@H](C)CN1CCCCc2nc(C)c(C)cc21,0.8%[11.5 µM],11%[11.4 µM],.,.,.
COc1cc2c(cc1OC)C(C)N(C(=O)Cn1ncc3c1-c1ccccc1OC3)CC2 (stereo not given),2.6%,11%,.,.,.
Cc1cc(C)nc(NC(=O)COc2ccc(Cl)cc2)c1,1.6%[11.5 µM],-4%[11.4 µM],i,1.4e-08,i
COc1ccc(F)cc1S(=O)(=O)Nc1ccccc1C(=O)O,-0.4%,-2%,.,.,.
Cc1csc(NC(=O)CSc2nc3ccccc3c(=O)[nH]2)n1,-0.6%,11%,i,1e-09,i
COc1cc(N)c(Cl)cc1NC(=O)c1ccccc1,0.9%,-1%,.,.,.
COc1ccc(-c2ccc(SCC(=O)Nc3cc(C)on3)nn2)cc1OC,0.8%,1%,i,2.6e-08,i
COCC1C2CC[C@H]3C(OCc4ccc(OC)cc4)OC[C@]4(C)[C@H]3C2=C(CN4C(=O)OC(C)(C)C)[C@H](C)C1COC (stereo not given in full),-3.5%,2%,.,.,.
CCCC(=O)Nc1ccccc1-c1nnn(CC(=O)Nc2ccc(OCC)cc2)n1,-2.5%,16%,i,4.1e-08,i
Clc1ccccc1-c1ccc2ncnc(NCCN3CCOCC3)c2c1,3.1%,11%,i,4.7e-08,i
COc1cc2c(cc1OC)C(Cc1ccc(O)cc1)N(C)CC2 (stereo not given),2.8%,4%,.,.,.
COc1ccc(OC(C)C(=O)N2CCOCC2)cc1 (stereo not given),-0.3%,-2%,i,7.7e-09,i
O=C1c2ccccc2C(Nc2ccc(-c3nc4ccccc4[nH]3)cc2)N1Cc1ccco1 (stereo not given),4.0%,-4%,.,.,.
O=c1c2c(nc3cc(-c4ccc(F)cc4)[nH]n13)CCCC2,-1.0%,-4%,i,1e-09,i
Cc1ccc2cc(CN(C(=O)c3ccncc3)C(C)C)c(=O)[nH]c2c1,0.2%,?,i,1e-09,i
O=C(OCCn1cncn1)c1cc2ccccc2oc1=O,-0.6%,4%,i,4e-08,i
COC(=O)COc1ccc(S(=O)(=O)Nc2ccc3c(c2)OCO3)cc1Cl,-1.7%,-8%,i,1e-09,i
COC(=O)CSc1nnc(CNC(=O)c2cc(OC)c(OC)c(OC)c2)n1C,-0.8%,-2%,i,2e-08,i
Cc1ccc(NC(=O)COC(=O)c2ccn(C)n2)cc1,-0.1%,.,i,4.7e-09,i
CCC1(COC(=O)Nc2cccc(Cl)c2)COC1,-2.6%,.,i,7.4e-09,i
Cc1ccccc1CS(=O)(=O)CCC(=O)NCc1ccccn1,1.0%,-5%,i,1e-09,i
CCCCn1c(SCC(=O)NCc2ccccc2)nc2ccc(N3CCOCC3)cc2c1=O,17%,-1%,i,2.3e-08,i
Clc1ccccc1-c1nn2c(-c3ccncc3)nnc2s1,-2.0%,4%,i,2e-09,i
COc1cc(-c2nnc(-c3ccco3)o2)ccc1OCc1ccccc1,2.9%,?,i,3.1e-08,i
O=C(Nc1ccccc1)c1ccc(F)c(S(=O)(=O)N2CCOCC2)c1,0.3%,?,i,1e-09,i
CSCCC(/C(O)=C(\C#N)c1nc2ccccc2[nH]1)N1C(=O)c2ccccc2C1=O (stereo not given),0.6%,-12%,.,.,.
O=c1ccnc(NCCc2ccccc2)[nH]1,0.6%,11%,i,2.2e-09,i
Cc1cc(C)c(NC(=O)CSc2nnc(-c3ccncc3)n2Cc2ccco2)c(Cl)c1,-1.6%,-2%,i,1e-09,i
Cc1ccc(S(=O)(=O)Cn2nnnc2C(C(C)C)N2CCN(C(=O)c3ccco3)CC2)cc1 (stereo not given),-0.1%,1%,i,3.2e-08,i
COCCN(Cc1cc2cccc(C)c2[nH]c1=O)C(=O)c1ccccc1,-0.8%,3%,i,6.6e-09,i

(cont.)
Compound,AID923,TSHR ag,A488 fluor,A647 autofl,Resorufin fluor
COC(=O)CCc1c(C)[nH]c(=S)[nH]c1=O,.,.,i,5.7e-09,i
CC(=O)OCC1OC(c2ccc(C(C)=O)cc2)C=CC1OC(C)=O (stereo not given),1.4%[11.5 µM],-2%[11.4 µM],.,.,.
Cc1ccccc1OCC1Cn2c(nc3c2c(=O)[nH]c(=O)n3C)O1 (stereo not given),-0.3%,2%,i,3.4e-08,i
COc1ccc(-n2ncc3c(N4CCc5ccccc54)ncnc32)cc1,1.4%,-14%,i,1e-09,i
Cc1nnc(N(Cc2ccco2)C(=O)c2ccno2)s1,3.2%,0%,i,7e-08,i
Clc1ccc(-c2nnc3ccccn23)cc1,-0.9%,-3%,i,1e-09,i
Cc1ccc(OCC(O)Cn2c(N3CCOCC3)nc3c2c(=O)[nH]c(=O)n3C)cc1 (stereo not given),-1.7%,2%,i,1.3e-08,i
CCC(c1nnnn1C1CCCC1)N1CCN(C(=O)c2ccco2)CC1 (stereo not given),0.3%,4%,i,2.8e-08,i
